High-throughput results from PubChem BioAssay.
KCNQ2 enhance: potentiators of rat KCNQ2 potassium channel. B-score at 10 µM. 310,000 compounds, 0.54% hits. CHO-K1 KCNQ2, FluxOR thallium flux fluorescence; hits give high values. AID 2239. O88943;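 active = fluorescence ratio B-score at least 3 SD of library B-scores, with initial fluorescence B-score within 3 SD, cut at about 5.3 in these data; same plate scores as AID 2156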;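 also: B-score of peak minus minimum over baseline fluorescence ratio after K+ and Tl+ stimulus; positive B-score means potentiation of KCNQ2 with more thallium influx and brighter signal; only the inactives scoring about 0 or higher are listed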
Target sequence (O88943 whole entry, looked up): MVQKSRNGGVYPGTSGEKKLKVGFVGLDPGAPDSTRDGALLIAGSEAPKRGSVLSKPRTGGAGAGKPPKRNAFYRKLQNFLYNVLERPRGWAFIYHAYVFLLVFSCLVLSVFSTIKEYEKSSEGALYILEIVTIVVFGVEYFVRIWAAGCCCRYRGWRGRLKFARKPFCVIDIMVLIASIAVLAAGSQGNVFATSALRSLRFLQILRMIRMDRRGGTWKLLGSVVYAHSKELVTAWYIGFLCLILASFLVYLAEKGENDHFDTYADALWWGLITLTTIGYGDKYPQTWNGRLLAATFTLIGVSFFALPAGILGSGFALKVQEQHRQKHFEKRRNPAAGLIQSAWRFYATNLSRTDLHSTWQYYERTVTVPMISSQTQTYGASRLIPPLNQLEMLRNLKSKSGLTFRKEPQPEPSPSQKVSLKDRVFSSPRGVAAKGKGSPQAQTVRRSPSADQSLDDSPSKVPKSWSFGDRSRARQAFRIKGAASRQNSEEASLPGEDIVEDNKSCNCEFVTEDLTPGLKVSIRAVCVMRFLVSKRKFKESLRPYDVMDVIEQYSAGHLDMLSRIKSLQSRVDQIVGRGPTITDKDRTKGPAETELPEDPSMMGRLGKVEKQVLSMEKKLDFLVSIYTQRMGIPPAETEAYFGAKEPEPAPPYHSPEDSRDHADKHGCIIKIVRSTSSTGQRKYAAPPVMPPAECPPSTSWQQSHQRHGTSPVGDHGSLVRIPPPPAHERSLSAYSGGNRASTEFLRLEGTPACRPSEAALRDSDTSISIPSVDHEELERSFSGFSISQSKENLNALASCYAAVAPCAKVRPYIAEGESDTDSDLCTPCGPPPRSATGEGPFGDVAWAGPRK
KCNQ2 enhance baseline: second read-out of KCNQ2 enhance, no call of its own (marks repeat the call); B-score; compound at 10 µM; measured here: initial fluorescence intensity artifact check;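 brightness before thallium and not channel activity; 0 = typical well and far values either way flag optical interference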
* hit, by the source's call.

For COc1ccc([C@@H]2[C@@H]3C(=O)N(C(C)(C)C)C(=O)[C@@H]3[C@]3(Cc4ccccc4)C(=O)N(c4cccc(F)c4)C(=O)N23)cc1 the results were KCNQ2 enhance 0.04 and KCNQ2 enhance baseline -0.51.
Cc1coc2cc3oc(=O)c(CCC(=O)NCCN4CCOCC4)c(C)c3cc12 was read as KCNQ2 enhance 3.1 and KCNQ2 enhance baseline -0.65.
CCc1ccc(OCC(=O)N/N=C(\C)c2ccc(-n3ccnc3)cc2)cc1 was read as KCNQ2 enhance 0.59 and KCNQ2 enhance baseline 0.9.
Cc1ccc(NC(=O)COC(=O)CCc2c[nH]c3ccccc23)cc1[N+](=O)[O-] was read as KCNQ2 enhance 1.9 and KCNQ2 enhance baseline 0.57.
Screening CCC(=O)Nc1ccc(C(=O)CSc2nnc(CNc3ccc(Cl)cc3)o2)cc1OC returned KCNQ2 enhance 1.1 and KCNQ2 enhance baseline -1.2.
Screening CCCn1c(C(C)NC(=O)c2ccccc2)n[nH]c1=S (configuration not stated) returned KCNQ2 enhance 0.22 and KCNQ2 enhance baseline 0.38.
Screening O=C1NN=C(c2ccc(Cl)cc2)CC1c1c[nH]c2ccccc12 (configuration not stated) returned KCNQ2 enhance 0.01 and KCNQ2 enhance baseline 2.1.
Screening Cn1c(=O)[nH]c(=O)c2c1nc(N1CCCCC1)n2CC(O)COc1ccccc1 (configuration not stated) returned KCNQ2 enhance 0.14 and KCNQ2 enhance baseline -0.26.
For COc1ccc(N(Cc2nnc3n2CCCCC3)C(=O)Nc2ccccc2)cc1 the results were KCNQ2 enhance 0.95 and KCNQ2 enhance baseline -0.22.
For COc1ccc(NC(=O)CCC(=O)N(Cc2ccc(OC)c(OC)c2)c2nccs2)cc1 the results were KCNQ2 enhance 0.53 and KCNQ2 enhance baseline -0.7.
CS(=O)(=O)N1CCN(C(=O)c2cc(-c3ccccc3)nc3ccccc23)CC1 was read as KCNQ2 enhance 2.2 and KCNQ2 enhance baseline -0.67.
For CCOC(=O)C1CCCN(c2c(NCCCN(C)Cc3ccccc3)c(=O)c2=O)C1 (configuration not stated) the results were KCNQ2 enhance 2 and KCNQ2 enhance baseline -1.3.
For CCOC(=O)C1CCCN(c2c(NCCCN(CC)c3ccccc3)c(=O)c2=O)C1 (configuration not stated) the results were KCNQ2 enhance 0.04 and KCNQ2 enhance baseline 0.08.
`Cn1cc(S(=O)(=O)N2CCc3ccccc32)cc1C(=O)NC(C)(C)C` gave KCNQ2 enhance 0.8 and KCNQ2 enhance baseline 0.26.
For O=C(CNC(=O)c1ccc(Cl)cc1)Nc1ccccc1C(F)(F)F the results were KCNQ2 enhance 0.29 and KCNQ2 enhance baseline 1.6.
Screening CCCOc1ccc(Cl)cc1Nc1nc(NCCO)nc(N2CCCC2)n1 returned KCNQ2 enhance 0.71 and KCNQ2 enhance baseline 0.18.
For CCCCC(NC(=O)Cc1c(C)c2cc3c4c(oc3c(C)c2oc1=O)CCCC4)C(=O)O (configuration not stated) the results were KCNQ2 enhance 1.9 and KCNQ2 enhance baseline 0.14.
`Cc1onc(-c2ccccc2)c1C(=O)N1CCCCCC1` gave KCNQ2 enhance 1.3 and KCNQ2 enhance baseline -0.05.
For COc1ccc(C/C(C)=N/NC(=O)c2cccnc2)cc1 the results were KCNQ2 enhance 0.17 and KCNQ2 enhance baseline -1.4.
COc1ccc(NC(=S)N(CCO)Cc2ccccc2)cc1 was read as KCNQ2 enhance 1.6 and KCNQ2 enhance baseline 2.3.
N#C/C(=C(/O)c1ccc2c(c1)OCO2)c1nc2cc(C(F)(F)F)ccc2s1 was read as KCNQ2 enhance 0.69 and KCNQ2 enhance baseline -1.5.
`COc1ccccc1OCc1ccc(C(=O)NC(C)c2ccccc2)o1` (configuration not stated) gave KCNQ2 enhance 0.91 and KCNQ2 enhance baseline -0.85.
Screening CN1CCN(CCC(=O)N/N=C/c2cc3c(cc2[N+](=O)[O-])OCO3)CC1 returned KCNQ2 enhance 0.79 and KCNQ2 enhance baseline -1.1.
Screening O=C(CCn1nc(-c2ccccc2)c2ccccc2c1=O)NCC1CCCO1 (configuration not stated) returned KCNQ2 enhance 0.05 and KCNQ2 enhance baseline -0.69.
`COc1cc(C(=O)OC(C)C(=O)NC2CCCCC2C)c([N+](=O)[O-])cc1OC` (configuration not stated) gave KCNQ2 enhance 1.1 and KCNQ2 enhance baseline -2.7.
O=C(Nc1nncs1)C12CC3CC(CC(C3)C1)C2 was read as KCNQ2 enhance 0.06 and KCNQ2 enhance baseline -1.3.
`COc1ccc(NC(=S)NCc2ccc(F)cc2)c(OC)c1` gave KCNQ2 enhance 2.2 and KCNQ2 enhance baseline -1.1.
`CCCN1C2CCCC1CC(NC(=O)c1ccccc1OCC)C2` (configuration not stated) gave KCNQ2 enhance 1.2 and KCNQ2 enhance baseline -1.6.
Cc1ccc2[nH]c(=O)cc(C(=O)OCC(=O)c3ccccc3)c2c1 was read as KCNQ2 enhance 0.47 and KCNQ2 enhance baseline 5.7.
For COc1ccc(CCN(Cc2ccccn2)C(=S)Nc2ccccc2Cl)cc1OC the results were KCNQ2 enhance 0.07 and KCNQ2 enhance baseline -0.88.
O=C(NCc1ccccc1Cl)C1CCN(S(=O)(=O)c2cccs2)CC1 was read as KCNQ2 enhance 1.2 and KCNQ2 enhance baseline 1.6.
Screening O=C(CN(C(=O)CSc1nc2ccccc2o1)c1ccccc1F)NC1CCCCC1 returned KCNQ2 enhance 1.1 and KCNQ2 enhance baseline -1.3.
`Cc1nn(C)c(N)c1C(O)(c1nccn1C)C(F)(F)F` (configuration not stated) gave KCNQ2 enhance 1.1 and KCNQ2 enhance baseline 1.2.
Screening COc1ccc(CCC(=O)OCC(=O)c2c(N)n(CC(C)C)c(=O)n(C)c2=O)cc1 returned KCNQ2 enhance 2.4 and KCNQ2 enhance baseline -0.6.
For O=C(Nc1sccc1C(=O)N1CCOCC1)c1cccnc1 the results were KCNQ2 enhance 0.14 and KCNQ2 enhance baseline 0.29.
Screening O=C1CC2(CCN(C(=O)c3ccccc3[N+](=O)[O-])CC2)Oc2ccccc21 returned KCNQ2 enhance 0.02 and KCNQ2 enhance baseline 1.3.
`Cc1nc(NC(=O)CN2CCOCC2)sc1C(=O)N(C)C` gave KCNQ2 enhance 0.84 and KCNQ2 enhance baseline -0.69.
For COc1ccc(C(=O)N/C(=C\c2ccc3c(c2)OCO3)C(=O)Nc2cccc(C(=O)O)c2)cc1 the results were KCNQ2 enhance 0.95 and KCNQ2 enhance baseline -1.2.
For Cc1ccc2c(c1)C1CN(C)CCC1N2C(=S)Nc1ccc(OC(F)F)cc1 (configuration not stated) the results were KCNQ2 enhance 2.6 and KCNQ2 enhance baseline -1.8.
For N#C/C(=C\c1ccc(OC(=O)c2ccc(Cl)s2)cc1)c1nc2ccccc2[nH]1 the results were KCNQ2 enhance 0.17 and KCNQ2 enhance baseline 2.9.
O=C(O)CC(SCC(=O)Nc1ccc(S(=O)(=O)N2CCCC2)cc1)C(=O)O (configuration not stated) was read as KCNQ2 enhance 0.71 and KCNQ2 enhance baseline 1.9.
For N#Cc1cc2c(nc1SCc1ccccc1)CCCCC2 the results were KCNQ2 enhance 0.64 and KCNQ2 enhance baseline -1.9.
Screening Cn1nc(C(=O)OCC(=O)c2ccc[nH]2)c2ccccc2c1=O returned KCNQ2 enhance 0.81 and KCNQ2 enhance baseline -2.3.
For Cc1cccc(Oc2nccc(C(F)(F)F)c2C(=O)Nc2ccc(F)cc2F)c1 the results were KCNQ2 enhance 0.75 and KCNQ2 enhance baseline -0.36.
For CCOC(=O)N1CCN(S(=O)(=O)c2ccc(NC(C)=O)cc2)CC1 the results were KCNQ2 enhance 0.29 and KCNQ2 enhance baseline 0.46.
`COCCNC(=O)Cc1cn(C)c2ccccc12` gave KCNQ2 enhance 1.1 and KCNQ2 enhance baseline 1.6.
Screening Cc1c(NC(=O)c2ccc(=O)oc2)c(=O)n(-c2ccccc2)n1C returned KCNQ2 enhance 1.1 and KCNQ2 enhance baseline -0.4.
Screening Cc1cc(Nc2ccccc2C(=O)O)n(-c2cccc(Cl)c2)n1 returned KCNQ2 enhance 0.02 and KCNQ2 enhance baseline 0.43.

In the list so far, these have a COOH group:
For CCCCC(NC(=O)Cc1c(C)c2cc3c4c(oc3c(C)c2oc1=O)CCCC4)C(=O)O (configuration not stated) the results were KCNQ2 enhance 1.9 and KCNQ2 enhance baseline 0.14.
For COc1ccc(C(=O)N/C(=C\c2ccc3c(c2)OCO3)C(=O)Nc2cccc(C(=O)O)c2)cc1 the results were KCNQ2 enhance 0.95 and KCNQ2 enhance baseline -1.2.
O=C(O)CC(SCC(=O)Nc1ccc(S(=O)(=O)N2CCCC2)cc1)C(=O)O (configuration not stated) was read as KCNQ2 enhance 0.71 and KCNQ2 enhance baseline 1.9.
Screening Cc1cc(Nc2ccccc2C(=O)O)n(-c2cccc(Cl)c2)n1 returned KCNQ2 enhance 0.02 and KCNQ2 enhance baseline 0.43.

(cont.)
For Cc1ccc(C(=O)NCCCN2CCOCC2)cc1 the results were KCNQ2 enhance 0.33 and KCNQ2 enhance baseline 0.54.
CCN(CC(=O)NCc1cccs1)C(=O)c1cccc(S(=O)(=O)Nc2ccccc2OC)c1 was read as KCNQ2 enhance 0.15 and KCNQ2 enhance baseline 0.9.
For Cc1cc(C)c(NC(=O)CCN2CCN(Cc3ccccc3)CC2)c(C)c1 the results were KCNQ2 enhance 4.3 and KCNQ2 enhance baseline 1.1.
Screening CCN(CC)C(=O)c1cnn(-c2ccccc2)c1NC(=O)c1cccs1 returned KCNQ2 enhance 1.4 and KCNQ2 enhance baseline -0.47.
COc1cc2[nH]c(=O)n(CCCCCC(=O)NCCCN3CCC(C)CC3)c(=O)c2cc1OC was read as KCNQ2 enhance 0.02 and KCNQ2 enhance baseline 0.6.
`COc1ccc(NC(=O)NN2CCN(C)CC2)cc1` gave KCNQ2 enhance 0.79 and KCNQ2 enhance baseline -1.3.
COC(=O)c1cc(S(=O)(=O)n2nc(C)c(Br)c2C)c(Cl)cc1Cl was read as KCNQ2 enhance 1.6 and KCNQ2 enhance baseline -1.2.
`COc1cccc(NC(=O)COC(=O)CCCC2=NS(=O)(=O)c3ccccc3N2)c1` gave KCNQ2 enhance 1.3 and KCNQ2 enhance baseline 0.18.
For Cc1ccccc1Nc1nnc(SCC(=O)NC(=O)Nc2ccc3c(c2)OCCO3)s1 the results were KCNQ2 enhance 0.8 and KCNQ2 enhance baseline 3.6.
COc1ccc(/C(N)=N/OC(=O)N2CCOCC2)cc1 was read as KCNQ2 enhance 0.76 and KCNQ2 enhance baseline 1.2.
O=C(O)c1ccccc1-c1ccc(/C=C2\SC(=O)N(c3ccccc3)C2=O)o1 was read as KCNQ2 enhance 1.1 and KCNQ2 enhance baseline -0.32.
`Cc1ccc(S(=O)(=O)N2CCOCC2)cc1NC(=O)CSc1nnc2cc(C)c3ccccc3n12` gave KCNQ2 enhance 1.1 and KCNQ2 enhance baseline -0.68.
For CC(=O)Cc1nsc(NC(=O)c2cc(-c3ccc(Cl)c(Cl)c3)oc2C)n1 the results were KCNQ2 enhance 1.7 and KCNQ2 enhance baseline 0.5.
For CCOc1ccccc1/C=N/NC(=O)c1c(C)nc2ccc(Br)cn12 the results were KCNQ2 enhance 2.3 and KCNQ2 enhance baseline -0.25.
Screening Cc1ccc(-n2c(-c3ccccc3)cc(=O)nc2C)cc1 returned KCNQ2 enhance 1.1 and KCNQ2 enhance baseline -0.12.
Cc1ccccc1N(CC(=O)NC1CCCC1)C(=O)CS(=O)CC(=O)Nc1ccc2c(c1)OCO2 (configuration not stated) was read as KCNQ2 enhance 3 and KCNQ2 enhance baseline -2.3.
`CCN(Cc1ccncc1)C(=O)CCc1nnc(CCc2ccc(OC)cc2)o1` gave KCNQ2 enhance 0.89 and KCNQ2 enhance baseline 0.79.
`O=C(O)CCNC(=O)c1ccc(Br)o1` gave KCNQ2 enhance 1.9 and KCNQ2 enhance baseline 0.29.
For COc1ccc2[nH]c(=O)c(CN(C)C(=O)c3ccncc3)cc2c1 the results were KCNQ2 enhance 3.2 and KCNQ2 enhance baseline -1.1.
Cc1nn(C)c(Cl)c1C(N)=O was read as KCNQ2 enhance 0.37 and KCNQ2 enhance baseline 0.92.
`Cc1sc2ncn(CC(=O)N3CCN(c4ccccc4)CC3)c(=O)c2c1S(=O)(=O)N1CCOCC1` gave KCNQ2 enhance 1.7 and KCNQ2 enhance baseline -0.4.
For CCC(C(=O)O)n1nc(-c2ccccc2)c2cc(Cl)ccc21 (configuration not stated) the results were KCNQ2 enhance 0.74 and KCNQ2 enhance baseline -0.54.
`CC(C)CNC(=O)CC1Nc2ccccc2NC1=O` (configuration not stated) gave KCNQ2 enhance 1.9 and KCNQ2 enhance baseline -0.97.
Screening COc1ccccc1NC(=O)C(=O)N/N=C/c1ccc([N+](=O)[O-])s1 returned KCNQ2 enhance 2.2 and KCNQ2 enhance baseline 0.41.

Structural class, the compounds so far with bromine
COC(=O)c1cc(S(=O)(=O)n2nc(C)c(Br)c2C)c(Cl)cc1Cl was read as KCNQ2 enhance 1.6 and KCNQ2 enhance baseline -1.2.
For CCOc1ccccc1/C=N/NC(=O)c1c(C)nc2ccc(Br)cn12 the results were KCNQ2 enhance 2.3 and KCNQ2 enhance baseline -0.25.
`O=C(O)CCNC(=O)c1ccc(Br)o1` gave KCNQ2 enhance 1.9 and KCNQ2 enhance baseline 0.29.

Additional compounds follow:
For Cc1csc(=O)n1CC(=O)OCC(=O)NNC(=O)c1ccccc1 the results were KCNQ2 enhance 1.9 and KCNQ2 enhance baseline 0.15.
Screening O=C(CCCCC(=O)Nc1ccccc1Cl)Nc1ccccc1Cl returned KCNQ2 enhance 0.06 and KCNQ2 enhance baseline -1.1.
`O=C(COc1ccc(-n2cnnn2)cc1)NCCc1ccc(F)cc1` gave KCNQ2 enhance 0.81 and KCNQ2 enhance baseline -0.69.
Screening Cc1cc(/C=C(\C#N)C(=O)NCc2ccco2)c(C)n1-c1cccnc1 returned KCNQ2 enhance 0.47 and KCNQ2 enhance baseline -0.68.
`O=C(CCn1nc(-c2ccccc2)ccc1=O)NCCCN1CCCCCC1` gave KCNQ2 enhance 0.31 and KCNQ2 enhance baseline -1.3.

An excerpt (hit frequency here may not be typical).
